# Compound activity from PubChem.
# RE007 growth inh: less growth of the S. pombe RE007 Vpr strain; S. pombe RE007 Vpr strain, BacTiter-Glo ATP luminescence, 24 h; control for the full effect not named in the record; Potency, µM (top dose mostly 92.2 µM), inactives show top-dose activity change, negative = less growth; hit rate 0.21% among 360,000; AID 651644; active = well fitted falling curve with a large enough effect; inconclusive = small, poorly fitted or top-dose-only effect; inactive = no such curve, though single readings can be large or run the other way;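 also: % is scaled to controls: 0 for no effect and ±100 for the full control effect; nearly all actives have a fitted effect of over 50% in size; the assay follows cell death caused by Vpr and the record does not say whether a fall means rescue or toxicity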
#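 Fission yeast RE007 carrying one integrated HIV-1 vpr copy, seeded at OD 0.01 in PMG+AL medium with 23 nL pinned compound. Grown 24 h at 30 degrees; viability read by BacTiter-Glo luminescence after 5 min.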
# SARS PLP yeast: SARS-CoV PLP inhibition in yeast; hit rate 0.19% among 330,000; AID 485353; Potency, µM (top dose mostly 32.9 µM), for the others: at the highest dose activity, positive = growth rescue; S. cerevisiae expressing SARS-CoV PLpro, growth rescue; control for the full effect not named in the record; active means well fitted rising curve with a large enough effect; inconclusive means small, poorly fitted or top-dose-only effect; inactive means no such curve, though single readings can be large or run the other way; also: 0% is about no effect; nearly all actives have a fitted effect of over 55% in size; growth read by luminescence after 48 h
# Lassa entry inh: Lassa virus entry inhibition | Lassa virus pseudotype entry inhibition, cell reporter; control for the full effect not named in the record | Potency, µM (highest dose often 37.9 µM), without a hit: at the highest dose activity change, negative = inhibition, hits mostly inhibitors | hit rate 1.2% among 300,000 | AID 540256; active means well fitted inhibition curve with a large enough effect; inconclusive means small, poorly fitted or top-dose-only effect, or effect the other way; inactive means flat fitted curve, though single readings scatter; tested in HEK293 cells; also: % is scaled to controls: 0 for no effect and ±100 for the full control effect; nearly all actives have a fitted effect of over 50% in size; luciferase read-out
# NS1 inh: inhibitors of influenza NS1 protein function | S. cerevisiae slowed by influenza A NS1, growth recovery by OD600 | Potency, µM (titrated, usually from 46.1 µM), for inactives: top-dose activity, positive = more growth | hit rate 0.4% among 270,000 | AID 2326; active means well fitted rising curve with a large enough effect; inconclusive means small, poorly fitted or top-dose-only effect; inactive means no such curve, though single readings can be large or run the other way; also: nearly all actives have a fitted effect of over 50% in size
#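 Growth recovery, yeast-based: influenza A NS1 expressed in S. cerevisiae causes slow growth, and suppressors are detected by OD600. The parent strain without NS1 is used as positive control.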
# 2A StopGo: lowers the luciferase signal of an FMDV 2A StopGo reporter | Potency, µM (doses to about 57.9 µM), for the others: at the highest dose signal change, negative = less light | hit rate 1.2% among 410,000 | human cells with a luciferase reporter of 2A StopGo recoding; control for the full effect not named in the record; active = well fitted falling curve with a large enough effect; inconclusive = small, poorly fitted or top-dose-only effect; inactive = no such curve, though single readings can be large or run the other way; tested in HEK293T cells; also: % is scaled to controls: 0 for no effect and ±100 for the full control effect; nearly all actives have a fitted effect of over 45% in size; luciferase light after 4 h
# Cruzain inh Det: blocks cruzain activity in presence of Triton detergent; P25779; purified cruzain, Z-FR-AMC fluorescence, 0.01% Triton; Potency, µM, for the others: max response, negative = inhibition, most hits filed as inhibitors; hit rate 0.43% among 200,000; AID 1478;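 also: plate controls were neutral wells for no effect and buffer without enzyme for full effect; nearly all actives have a fitted effect of over 40% in size; top concentration of the series not given in the record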
# Target sequence (P25779 123-467 limits assumed): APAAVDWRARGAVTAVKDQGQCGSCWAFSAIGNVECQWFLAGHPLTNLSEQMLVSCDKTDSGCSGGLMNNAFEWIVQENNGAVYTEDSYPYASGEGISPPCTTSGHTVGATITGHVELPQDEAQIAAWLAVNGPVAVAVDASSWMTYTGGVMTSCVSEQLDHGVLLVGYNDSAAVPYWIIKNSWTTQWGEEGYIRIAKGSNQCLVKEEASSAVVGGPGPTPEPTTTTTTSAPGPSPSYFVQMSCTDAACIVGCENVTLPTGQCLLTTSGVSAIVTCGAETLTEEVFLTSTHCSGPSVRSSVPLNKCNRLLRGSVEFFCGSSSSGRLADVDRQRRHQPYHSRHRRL
#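 Detergent-containing arm of a paired screen for aggregation-based inhibition: 0.01% Triton X-100 present. Cruzain at 1.5 nM cleaved 2 uM Z-FR-AMC at pH 5.5 with 5 mM DTT; AMC fluorescence gain over 60 s measured activity.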
# MARV entry inh: Marburg virus entry inhibition | Marburg virus pseudotyped entry inhibition, cell reporter; control for the full effect not named in the record; about a third of the inactives were read at about 46 µM | Potency, µM (series often up to 37.8 µM), inactives show at the top dose activity change, negative = inhibition, most hits filed as inhibitors | hit rate 1.8% among 300,000 | AID 540276; active = well fitted inhibition curve with a large enough effect; inconclusive = small, poorly fitted or top-dose-only effect, or effect the other way; inactive = flat fitted curve, though single readings scatter; tested in HEK293 cells; about a fifth of its hits are not listed in these tables; also: % is scaled to controls: 0 for no effect and ±100 for the full control effect; luciferase read-out
# Cruzain inh noDet: cruzain (T. cruzi) inhibition without detergent; purified cruzain, Z-FR-AMC fluorescence, no detergent; hit rate 2.3% among 200,000; P25779; Potency, µM, inactives show max response, negative = inhibition, actives largely listed as inhibitors;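 also: plate controls were enzyme without inhibitor for no effect and buffer without enzyme for full effect; nearly all actives have a fitted effect of over 40% in size; top concentration of the series not given in the record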
#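 Purified cruzain at 1.5 nM, pre-incubated 15 min with compound at room temperature in 100 mM sodium acetate pH 5.5, 5 mM DTT, 0.00005% Triton X-100. Reaction started with 2 uM Z-FR-AMC; AMC fluorescence increase over 60 s gives rate.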
# Numbers without * were called inactive; ? = inconclusive; / = no result given; & = joins results of further samples; [ ] = dose if it differs, or a comment. Unless noted, calls follow the shape of the dose curve; as a rule, active = well fitted curve in the direction sought with a large enough effect; inconclusive = small, poorly fitted or top-dose-only effect, or another doubt; inactive = no such curve, though single readings can be large; an effect the other way counts as inactive or inconclusive. Potency is read from the fitted curve at half-maximal effect.
# Under each structure – RE007 growth inh, SARS PLP yeast, Lassa entry inh, NS1 inh, 2A StopGo, Cruzain inh Det, MARV entry inh, Cruzain inh noDet
> O=C(CCN1CCCCCC1)Nc1cccc(F)c1
  -1%, 5%, 7%, 3%, -19%, 2.8%, ?, -1%
> CSc1ncc(CN2CCCC(C(=O)c3sccc3C)C2)cn1 (stereo not given)
  -7%, 0%, -9%, 1%, 0%, /, 10%[46.1 µM], /
> CCCn1c(N)c(C(=O)CN2CCc3ccccc3C2)c(=O)n(C)c1=O
  8%, -3%, 14%, /, 20%, /, 13%[46.1 µM], /
> COc1ccccc1CNC(=O)C(C)NS(=O)(=O)c1ccccc1 (stereo not given)
  5%, 3%, -13%, 4%, -2%, 4.8%, 0%, -5%
> O=C(CSc1nnc(CNC(=O)c2c(F)cccc2Cl)o1)Nc1ccccc1F
  /, /, 9%[46.1 µM], /, -20%, -3.6%, 14%[46.1 µM], -1%
> CCN(CC)C(=O)N1CCc2ccccc2C1CN1C(=O)c2ccccc2C1=O (stereo not given)
  -22%, /, 1%, /, -16%, /, -14%, /
> CCCc1cc(C(=O)Nc2ccc(C#N)cc2)no1
  4%, 1%, -4%, -19%, 36%[activator], /, 1%[46.1 µM], /
> Cc1ccc(S(=O)(=O)CCC(=O)N(CCCN2CCOCC2)c2nc3ccccc3s2)cc1
  -15%, -1%, ?, /, 12%, /, ?, /
> COc1ccc(C(=O)NNC(=O)CN2CCN(c3nc(-c4ccccc4)cs3)CC2)cc1
  20%, -12%, 5%, 13%, -9%, 1.9%, 7%, -16%
> CCOC(=O)C1=C(C)NC(=O)NC1c1ccccc1 (stereo not given)
  15%, -9%, -8%, -9%, -17%, -1.8%, -13%, -2%
> CCN(CC)S(=O)(=O)c1cc(NC(=O)C(C)N2CC=C(c3ccccc3)CC2)ccc1C (stereo not given)
  -4%, 18%, 16µM*, -11%, ?, -5.8%, ?, 26%
> N#CCCn1nc(-c2ccc([N+](=O)[O-])cc2)cc1Nc1ccccc1NC(=O)C(F)(F)F
  21%, -5%, -27%, -3%, ?, -7.5%, ?, -23%
> CC(C)C(c1nnnn1Cc1ccc(F)cc1)N1CCC(C(N)=O)CC1 (stereo not given)
  16%, 0%, 2%, /, 0%, /, 11%[46.1 µM], /
> COc1cc(OC)c(OC)cc1CNC(=O)c1cc(=O)c2ccccc2o1
  1%, /, /, 10%, -8%, /, ?, /
> CC(C)CC(C(=O)OCC(=O)Nc1ncc(Cl)cc1Cl)N1C(=O)c2ccccc2C1=O (stereo not given)
  -3%, 5%, -7%, -16%, -14%, -21%, 1%[46.1 µM], ?
> CC(C)(C)NC(=O)C(c1ccccc1)N(C(=O)c1ccco1)C1CC1 (stereo not given)
  16%, 1%, 20%, -1%, 0%, -0.4%, -2%, 2%
> CCc1ccc(CNC(=O)c2ccc3nc(C(C)C)oc3c2)cc1
  /, /, -7%[46.1 µM], /, -2%, -6.7%, /, 26%
> COC(=O)N/N=C/c1ccc(-c2cc(Cl)ccc2Cl)o1
  -20%, -37%, 7%, -1%, -10%, -3.8%, -24%, 4%
> C/C(N)=C(/C#N)C(=O)CSc1nc2ccc(C)cc2[nH]1
  1%, -6%, ?, -8%, -56%, 1.6%, ?, 4%
> O=C(C[n+]1ccccc1)N/N=C/c1cc(Br)ccc1F
  21%, 6%, 15%, /, -7%, /, 0%, /
> COC(=O)c1ccc(OC(=O)c2nn(C)cc2Cl)c(OC)c1
  20%, -5%, 0%, -24%, 22%, 2.4%, 18%, -10%
> CC(C)Oc1ccc(C2CCC(=O)NC2=O)cc1 (stereo not given)
  12%, -12%, 13%, 1%, 7%, -0.5%, 17%, -2%
> COc1ccc(N2CCN(CC(O)COc3ccc(C(C)(C)C)cc3)CC2)cc1 (stereo not given)
  /, /, 2%[46.1 µM], /, -10%, -3.2%, 0%[46.1 µM], ?
> Cn1c(SCc2cnc(-c3ccccc3)s2)nnc1C1COc2ccccc2O1 (stereo not given)
  1%, 16%, -10%, -27%, -11%, -7.5%, -11%, 11%
> CC(C)NC(=O)CSc1ccccc1C(=O)NCc1ccc2c(c1)OCO2
  -7%, 0%, 6%, 2%, -27%, -3.1%, 13%, 3%
> Cc1ccccc1C(=O)n1nc(-c2ccco2)nc1NCc1ccc(Cl)cc1
  /, /, ?, /, 18%, -1.4%, 5%[46.1 µM], -3%
> CCOC(=O)c1c(NC(=O)C2C3C=CC(C3)C2C(=O)O)sc2c1CCC(C)C2 (stereo not given)
  20%, 6%, -5%, 5%, -27%, -19%, ?, 5%
> O=C(c1cc(C(=O)N2CCN(c3ccc(F)cc3)CC2)cc([N+](=O)[O-])c1)N1CCN(c2ccc(F)cc2)CC1
  4%, -3%, -27%, ?, ?, /, ?, /
> c1ccc2c(c1)CNc1ccccc1-2
  7%, /, 9%, /, 0%, /, 23%, /
> CCOC(=O)c1nc(Nc2ccc(C(=O)OC)cc2)c2ccccc2n1
  -12%, -3%, ?, 9%, ?, -13%&-21%, ?, ?
> CCCCC1CCC(C(=O)N2CCOCC2)CC1 (stereo not given)
  -4%, -1%, -20%, 3%, -10%, -1.6%, ?, 8%
> Cc1[nH]c(=O)[nH]c(=O)c1S(=O)(=O)N(CC(C)C)CC(C)C
  -4%, 1%, 3%[46.1 µM], /, 13%, /, 15%[46.1 µM], /
> CCCCCCN(C(=O)CCCCCN1C(=O)NC(c2ccc(-c3ccccc3)cc2)C(C(=O)OCc2ccccc2)=C1C)C(C(=O)NCCCC)c1cccc(C(=O)OC)c1 (stereo not given)
  /, 2%, /, ?, /, -1.5%, /, -24%
> CC(C)(C)c1cc(NC(=O)NN2CCOCC2)nn1-c1c(Cl)cc(Cl)cc1Cl
  1%, 0%, /, -3%, -24%, /, /, /
> O=C(c1ccc2c(c1)C(=O)N(Cc1ccco1)C2=O)N1CCOCC1
  -4%, 7%, -3%, 3%, -17%, 5.2%, ?, -12%
> CC(C)C(C)NC(=O)CSc1nc2scc(-c3ccco3)c2c(=O)n1-c1ccccc1 (stereo not given)
  -5%, 3%, -13%, 6%, 0%, -3.6%, -38%, 15%
> Cc1nc2nc[nH]n2c(=O)c1CCC(=O)Nc1ccc(F)cc1
  /, /, 20%[46.1 µM], /, -3%, 3.4%, 16%[46.1 µM], 11%
> CC(C)C[C@@H](CSc1ccccc1)N1CCN(C)CCC1=O
  -1%, -9%, /, 4%, 25%, /, /, /
> Cc1ccc(N(C(=O)c2ccco2)C2C=CS(=O)(=O)C2)cc1 (stereo not given)
  115%, 1%, ?, /, -14%, /, -8%[46.1 µM], /
> COc1ccc(C(CCNCc2ccccc2)c2ccc(F)cc2)cc1 (stereo not given)
  35%, 10%, ?, -13%, 28%, -1.4%, ?, -15%
> C#CCOCCOCCOCCNc1nc(N2CCN(C(=O)C(Cc3ccc(O)cc3)n3cc(C(N)C(C)CC)nn3)CC2)nc(N2CCN(C(=O)C(Cc3ccc(O)cc3)n3cc(C(N)C(C)CC)nn3)CC2)n1 (stereo not given)
  -3%, -2%, /, 10%, -17%, /, /, /
> CCOc1ccc(-c2c(C(=O)N/N=C/c3ccoc3)nnn2-c2nonc2N)cc1
  -3%, 9%, /, 11%, 1%, /, /, /
> COc1ccccc1C(=O)NC(=S)NC12CC3CC(CC(C3)C1)C2
  -8%, -3%, 0%, 1%, -8%, /, ?, /
> CCOC(=O)C1=C(c2ccccc2)NC(=O)NC1c1ccc(N(C)C)cc1 (stereo not given)
  8%, 13%, -1%, 15%, /, 2.2%, -6%, 3%
> COc1ccc(NC(=O)C2CC(=O)N/C(=N/NC(=O)c3ccc(Cl)cc3)S2)cc1 (stereo not given)
  -14%, 2%, -8%[46.1 µM], -2%, -14%, /, -13%[46.1 µM], /
> CS(=O)(=O)N1CCc2cc(C(=O)N3CCN(c4ccccc4)CC3)ccc21
  -7%, 13%, -2%, 13%, -4%&5%, -1.9%, ?, 20%
> O=C1c2ccccc2NC(c2cccc(O)c2)N1Cc1ccco1 (stereo not given)
  -22%, 0%, /, 3%, -13%, /, /, /
> CCc1cc2c(C)cc(=O)oc2cc1OC(=O)C1CCCN1C(=O)OC(C)(C)C (stereo not given)
  4%, -3%, 10%, -37%, -1%, -3.6%, -2%, ?
> COCc1nc(-c2ccc(-c3ccc(C)cc3)nc2OC)no1
  ?, 0%, 0%, -18%, 31%[activator], 2.5%, 14%, ?
> Cc1cc(-c2csc(N)n2)c(C)n1-c1ccccc1
  11%, 9%, 2%, 21%, 43%[activator], -3.6%, -7%, 25µM*
> Cc1onc(-c2ccccc2Cl)c1C(=O)Nc1nn[nH]n1
  4%, 4%, 0%, -3%, /, 0.7%, 26%, -9%
> Cc1cccc(N2CCN(S(=O)(=O)c3ccc4c(c3)OCCO4)CC2)c1C
  -4%, -8%, ?, 21%, -14%, /, ?, /
> O=C(OCC(=O)N1CCc2ccccc21)c1cc(S(=O)(=O)N2CCOCC2)ccc1F
  -23%, -1%, 1%, /, -21%, /, -12%, /
> O=C(Nc1nc2c(s1)COc1ccccc1-2)c1cccs1
  -3%, 3%, /, -53%, -25%, -7.3%, /, ?
> CCCCCCc1nc(C(N)=O)c2[nH]c(=O)n(-c3ccccc3F)c2n1
  -2%, 0%, /, 12%, ?, /, /, /
> COc1ccc(NC(=O)CSc2nnc(Cc3ccccc3)c(=O)n2N)c(OC)c1
  18%, 0%, 1%, /, -5%, /, -1%, /
> COc1ccc(NC(=O)COc2ccc(C(=O)NC3CCCc4ccccc43)cc2OC)cc1 (stereo not given)
  7%, -1%, 0%, ?, -4%, 9.0%, 7%, ?
> COc1ccc(CNC(=O)c2cc3c(s2)-c2c(C)cccc2OC3)cc1
  /, /, /, /, -17%, -13%, 3%[46.1 µM], ?
> CCN(CC(=O)Nc1ccccc1C(F)(F)F)C(=O)CCc1nc2ccccc2c(=O)[nH]1
  16%, -5%, 27%[46.1 µM], 4%, -28%, /, 5%[46.1 µM], /
> COc1ccccc1CNC(=O)c1ccc2c(c1)N(Cc1ccc(C)cc1)CCS2
  /, /, ?, /, 15%, -6.1%, ?, ?
